Screens deposited in PubChem by Johns Hopkins Ion Channel Center.
KCNQ2 pot – KCNQ2 (rat) channel potentiation | O88943 | CHO-K1 KCNQ2, FluxOR thallium flux fluorescence; active compounds read high | B-score at 10 µM | 0.54% of 310,000 active | AID 2239;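 active means fluorescence ratio B-score at least 3 SD of library B-scores, with initial fluorescence B-score within 3 SD, cut at about 5.3 in these data; same plate scores as AID 2156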;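 further: B-score of peak minus minimum over baseline fluorescence ratio after K+ and Tl+ stimulus; positive B-score means potentiation of KCNQ2 with more thallium influx and brighter signal; only the inactives scoring about 0 or higher are listed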
Target sequence (O88943 whole entry, looked up): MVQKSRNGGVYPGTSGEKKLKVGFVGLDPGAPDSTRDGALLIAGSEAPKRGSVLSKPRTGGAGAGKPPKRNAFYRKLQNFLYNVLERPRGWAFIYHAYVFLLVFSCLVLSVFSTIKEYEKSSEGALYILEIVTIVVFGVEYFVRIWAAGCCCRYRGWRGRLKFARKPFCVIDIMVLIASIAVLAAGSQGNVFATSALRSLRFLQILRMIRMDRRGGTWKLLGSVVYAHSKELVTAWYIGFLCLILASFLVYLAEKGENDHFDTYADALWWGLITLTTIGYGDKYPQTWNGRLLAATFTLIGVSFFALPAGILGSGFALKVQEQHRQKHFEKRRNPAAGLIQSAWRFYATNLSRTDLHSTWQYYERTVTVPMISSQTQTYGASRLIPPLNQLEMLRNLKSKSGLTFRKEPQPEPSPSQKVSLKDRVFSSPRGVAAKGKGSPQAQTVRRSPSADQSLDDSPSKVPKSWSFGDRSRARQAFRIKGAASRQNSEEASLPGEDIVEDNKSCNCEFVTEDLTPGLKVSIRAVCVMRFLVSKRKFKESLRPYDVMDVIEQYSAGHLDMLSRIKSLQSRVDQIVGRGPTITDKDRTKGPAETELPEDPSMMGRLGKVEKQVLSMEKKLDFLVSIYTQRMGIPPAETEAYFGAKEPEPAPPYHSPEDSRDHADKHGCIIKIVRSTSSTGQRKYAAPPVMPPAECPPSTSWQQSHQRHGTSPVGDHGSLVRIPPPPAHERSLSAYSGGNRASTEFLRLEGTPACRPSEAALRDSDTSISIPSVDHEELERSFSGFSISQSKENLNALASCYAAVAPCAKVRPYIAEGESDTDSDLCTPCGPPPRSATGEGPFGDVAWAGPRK
KCNQ2 pot baseline – further read-out of KCNQ2 pot, marked with its call; B-score; compound at 10 µM; measured here: initial fluorescence intensity artifact check;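 brightness before thallium and not channel activity; 0 = typical well and far values either way flag optical interference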
An asterisk follows results filed as active.

SMILES | KCNQ2 pot | KCNQ2 pot baseline
Cc1cc(Cl)c(OCCOCCN2CCCC(C)C2)c(Br)c1 (configuration not stated) | 0.01 | 0.68
CC1CCN(CCCNC(=O)C2CCN(S(=O)(=O)N3CCCCC3)CC2)CC1 | 0.03 | -0.04
O=C(CSc1nc(-c2ccco2)cc(C(F)(F)F)n1)N1CCN(c2ccc(Cl)cc2)CC1 | 3.02 | 0.05
Cc1cccnc1NC(=O)c1c(O)c2cccc3c2n(c1=O)CCC3 | 0.63 | -1.68
O=C(O)c1ccc(NCCc2ccc(Cl)cc2)c([N+](=O)[O-])c1 | 3.69 | 0.57
CC1=C(C(=O)Nc2cccnc2)C(c2ccccn2)n2nnnc2N1 (configuration not stated) | 0.63 | -0.86
COc1ccc(-c2csc(Nc3ncccn3)n2)cc1C | 0.33 | 0.01
Cc1ccc(C)c(Cn2nnc3c(=O)[nH]c(C4CCN(S(=O)(=O)c5ccc(S(=O)(=O)NC6CC6)cc5)CC4)nc32)c1 | 0.02 | 2.04
Cc1ccc(NC(=O)Cn2nnc(C(=O)NCc3cccs3)c2N)c(C)c1 | 0.01 | 0.25
Cc1cccc(Sc2ccc([N+](=O)[O-])cn2)c1 | 0.98 | 0

2 entries picked at random from those above:
SMILES | KCNQ2 pot | KCNQ2 pot baseline
Cc1ccc(NC(=O)Cn2nnc(C(=O)NCc3cccs3)c2N)c(C)c1 | 0.01 | 0.25
O=C(O)c1ccc(NCCc2ccc(Cl)cc2)c([N+](=O)[O-])c1 | 3.69 | 0.57

Carrying on:
SMILES | KCNQ2 pot | KCNQ2 pot baseline
CCN(CC)CCCNC(=O)C1CCCN(c2nnc(N3CCCC3=O)s2)C1 (configuration not stated) | 0.04 | 0
O=[N+]([O-])c1ccc(O)c(C(C#Cc2ccccc2)N2CCOCC2)c1 (configuration not stated) | 0.06 | 1.06
Cc1oc2ccc(OCc3cccc(Cl)c3)cc2c1C(=O)O | 2.94 | -0.42
COc1ccc(C)cc1NC(=O)CN1CCN(CC(=O)Nc2ccccc2F)CC1 | 0.16 | -0.01
COc1ccccc1NC(=O)CN1CCCCCC1 | 0.96 | 0.83
COC(=O)Cn1c(=NC(=O)c2cccc(OC)c2)sc2cc(OC)ccc21 | 0.01 | -0.45
CN(C)CCOC1c2ccccc2CSc2ccccc21 (configuration not stated) | 0.22 | -0.29
CCC(=O)Nc1cccc(NC(=O)c2cccc([N+](=O)[O-])c2C)c1 | 1.05 | 0.13
O=C(COC(=O)C1COc2ccccc2O1)Nc1cccc(S(=O)(=O)N2CCCCC2)c1 (configuration not stated) | 1.32 | -0.6
CCn1cc(Br)c(C(=O)NN)n1 | 0.02 | -0.17
COCCN(C(=O)c1csnn1)C(C(=O)NC(C)(C)C)c1cccc(OC)c1 (configuration not stated) | 1.55 | -0.22
COc1ccc(C(=O)N2CCCC(N3CCN(c4ccccc4OC)CC3)C2)c(OC)n1 (configuration not stated) | 1.3 | 1.76
Cc1ccc(OCc2cc(C(=O)N(C)Cc3cc(C4CC4)n[nH]3)no2)cc1C | 0.14 | -1.6
CCN(CC(=O)NC(C)C)C(=O)Cc1ccc(C)c(C)c1 | 1.88 | -0.22
Cn1c(O)c(N=NC(=O)c2ccco2)c2ccccc21 | 1.24 | -1.42
CCOC(=O)C1CCN(S(=O)(=O)c2cc(Br)cc3c2N(C(C)=O)C(C)C3)CC1 (configuration not stated) | 0.16 | 0.58
Nc1nc(N2CCCCC2)c(C=O)c(N2CCCCC2)n1 | 0.62 | -0.58
Cc1c([N+](=O)[O-])cc(C(=O)NCc2ccc(F)cc2)cc1[N+](=O)[O-] | 0.62 | -1.92
COc1cc(NC(=O)c2ccccc2F)c(OC)cc1NC(=O)CN1CCOCC1 | 0.43 | -0.02
O=C(c1cc(COc2ccc(F)cc2F)on1)N1CCN(C(=O)c2ccco2)CC1 | 0.63 | -2.67
COc1ccc(-n2nc(C(=O)NCC(=O)NCC3CCCO3)c3ccccc3c2=O)c(OC)c1 (configuration not stated) | 1.52 | -0.82
CSc1ccc(NC(=O)NCCN2CCc3ccccc3C2)cc1 | 0.55 | -0.11
COc1ccc(-c2nnc(SCc3ccc(C(=O)O)cc3)o2)cc1OC | 0.62 | 0.69
Cc1ccc(Cl)c(OCC(=O)N(C)CC(=O)Nc2ccc(N3CCOCC3)cc2)c1 | 0.21 | 0.63
Cn1c(COc2ccc(Cl)cc2)nnc1SCC(=O)NC1CCCCC1 | 1.79 | -1.74
O=C1c2ccccc2NC2(CCCC2)N1N=C1CCCC1 | 0.23 | 1.28
CC(=O)Oc1cc(C)cc2oc(=O)cc(-c3ccccc3)c12 | 0.01 | 1.93
CC(C)C1Nc2ccc(S(=O)(=O)N3CCOCC3)cc2NC1=O (configuration not stated) | 0.16 | -0.15
CC(C)(C)CN1CCNC(=O)C1CC(=O)N1CCN(c2ccccc2)CC1 (configuration not stated) | 0.51 | 1.53
C=CCn1c(SCC(=O)NC2CCCC2)nnc1-c1ccccn1 | 1.63 | 0.98
COCCN=c1scc(-c2cccs2)n1/N=C/c1ccc(O)c(O)c1O | 0.15 | -0.17
CCC(=O)Nc1nnc(C)s1 | 2.61 | -1.1
Cc1ccc(S(=O)(=O)NCCOCCNS(=O)(=O)c2ccc(C)cc2)cc1 | 0.31 | 0
COc1ccc(C(=O)Nc2ccccc2)cc1S(=O)(=O)Nc1cc(C)on1 | 1.34 | -1.05
CCOc1cc(/C=N/n2cnnc2)ccc1OS(=O)(=O)c1ccccc1 | 0.57 | 0.62
COc1ccc(NC(=O)C(NS(=O)(=O)c2ccc3c(c2)CCCN3C(C)=O)C(C)C)c(OC)c1 (configuration not stated) | 0.04 | -0.93
CC(OC(=O)CCCN=C1NS(=O)(=O)c2ccccc21)C(=O)NC1CCCCC1C (configuration not stated) | 0.13 | -2.04
O=C(CN1C(=O)CCS(=O)(=O)c2ccccc21)NCCc1ccccc1 | 0.14 | 2.08
O=C(Nc1ccc(Cl)cc1N1CCOCC1)C1CC1 | 1.42 | -0.36
O=C(N/N=C/c1ccncc1)NC1CCCCC1 | 1.1 | 1.19

By substructure, those above with a Cl atom
SMILES | KCNQ2 pot | KCNQ2 pot baseline
Cc1cc(Cl)c(OCCOCCN2CCCC(C)C2)c(Br)c1 (configuration not stated) | 0.01 | 0.68
O=C(CSc1nc(-c2ccco2)cc(C(F)(F)F)n1)N1CCN(c2ccc(Cl)cc2)CC1 | 3.02 | 0.05
O=C(O)c1ccc(NCCc2ccc(Cl)cc2)c([N+](=O)[O-])c1 | 3.69 | 0.57
Cc1oc2ccc(OCc3cccc(Cl)c3)cc2c1C(=O)O | 2.94 | -0.42
Cc1ccc(Cl)c(OCC(=O)N(C)CC(=O)Nc2ccc(N3CCOCC3)cc2)c1 | 0.21 | 0.63
Cn1c(COc2ccc(Cl)cc2)nnc1SCC(=O)NC1CCCCC1 | 1.79 | -1.74
O=C(Nc1ccc(Cl)cc1N1CCOCC1)C1CC1 | 1.42 | -0.36

Additional compounds
SMILES | KCNQ2 pot | KCNQ2 pot baseline
O=C(COC(=O)CNC(=O)c1cccs1)Nc1ccc(C(F)(F)F)cc1[N+](=O)[O-] | 0.57 | 0.08
Cc1ccc(C)c(OCCC(=O)NCCc2ccc(S(N)(=O)=O)cc2)c1 | 0.36 | 1.93
Cn1cc(C(=O)N2CCN(c3ccccc3)CC2)c(=O)c2cc(S(=O)(=O)N3CCCC3)ccc21 | 1.4 | -0.07
N#Cc1ccc(-c2ccc(OCC(O)CN3CCOCC3)cc2)cc1 (configuration not stated) | 1.22 | -0.17
CCOC(=O)C1C(=O)OC(C)(C)C1C(C)C(=O)c1ccc(C)cc1 (configuration not stated) | 0.81 | 0.49
O=C1CN(C(=O)CN2CCOCC2)C(c2ccccc2)c2cc(Br)ccc2N1 (configuration not stated) | 0.71 | -0.02
O=C(NCc1ccco1)c1nc2c(nnn2Cc2ccccc2Cl)c(=O)[nH]1 | 0.04 | 0.85
CCOC(=O)C1=C(C)NC(=S)NC1c1ccc(OCC(=O)N2CCCCCC2)c(OC)c1 (configuration not stated) | 0.3 | -0.04
Cc1ccsc1/C=C(\C#N)C(=O)NCc1cccnc1 | 0.8 | 1.15
Cc1ccc(-n2nnnc2SCC(=O)NC2CC2)cc1C | 0.93 | -0.25
Nn1c(=O)[nH]c2ccccc2c1=O | 0.37 | -0.02
COc1ccccc1OCc1nn[nH]n1 | 0.07 | -0.54
COCCN1C=C2C(=O)C(C)(OC(=O)C3CCCC3)C(=O)C=C2C=C1c1ccsc1 (configuration not stated) | 1.33 | 0.3
CCCCOc1ccc(C2C(C(=O)c3ccc(C)o3)=C(O)C(=O)N2CC2CCCO2)cc1 (configuration not stated) | 0.04 | 0.77
C=C(C)CSc1nnc(CCNC(=O)OC(C)(C)C)o1 | 0.75 | 0.62
COc1ccc(C(C)=O)cc1COC(=O)c1cnc(C)cn1 | 0.02 | 1.94
Cc1cc(C)n(C(CC(=O)O)C(=O)O)n1 (configuration not stated) | 1.09 | 0.7
CC1Cc2ccccc2N1C(=O)c1cc2c(=O)n3ccccc3nc2n1C (configuration not stated) | 0.57 | -0.24
CCCCN(CCCC)NC(=O)c1ccccc1 | 0.46 | -0.76
COc1cc(Nc2ccc(C(=O)O)cc2[N+](=O)[O-])cc(OC)c1 | 0.61 | -0.95
CC(C)(C)c1ccc(C(=O)C2CCCN(C(=O)C3CCOCC3)C2)cc1 (configuration not stated) | 0.49 | -2.12
Cc1ccc(C)c(OCCSc2nnc(-c3cccnc3)n2N)c1 | 0.49 | -1.09
O=C(NN=C1CCCC1)c1cc(Br)ccc1O | 0.14 | 1.67
COc1cc(C(=O)OCC(=O)N(C)c2ccccc2)cc(OC)c1OC | 1.02 | -0.17
COc1ccc(S(=O)(=O)N(C)CC(=O)Nc2cccc(C(C)=O)c2)cc1Cl | 0.51 | -1.01
COc1ccc(NC(=O)CN(C)C(=O)c2ccc(C)s2)cc1 | 0.16 | -0.01
CC(C)(C)c1cc(-c2ccccc2)n[nH]1 | 0.35 | -0.77
O=C(C1=C[C@H](C2CC2)C[C@H](OCc2ccc(CO)cc2)O1)N1CCN(Cc2ccc3c(c2)OCO3)CC1 | 0.06 | 0.62
CC(C)(C)OC(=O)NC1CCN(S(=O)(=O)c2ccc3c(c2)OCCO3)CC1 | 0.18 | 1.23
CCN(CCCNC(=O)Cn1ncc2c([nH]c3ccccc32)c1=O)Cc1ccccc1 | 1.6 | -0.5
CS(=O)(=O)N(CC(=O)NCc1ccc(Cl)cc1)C1CCCCC1 | 0.67 | 0
CSc1nsc(SCC(=O)Nc2ccc(NC(C)=O)cc2)n1 | 0.13 | 0.63
Cc1ccc2nc(SCC(=O)NCc3ccco3)[nH]c2c1 | 0.64 | 0.96
Cc1ccccc1CCN(C(=O)c1csnn1)C(C(=O)NC1CCCC1)c1ccco1 (configuration not stated) | 0.59 | -1.34
CC(C)C[C@H](NC(=O)Nc1ccc2c(c1)OCCO2)C(=O)O | 0.75 | -1.12
O=c1cc(CO)oc(C(Nc2ccccn2)c2ccccc2F)c1O (configuration not stated) | 0.11 | -0.02
Cc1cnc(NC(=O)CSc2nnc(Cc3ccccc3)o2)s1 | 2.11 | 0.47
CCOc1ccc(NC(=O)C2CC3CCC2C3)cc1 (configuration not stated) | 0.07 | 1.5
COc1cc2c3c(c1)c(N=NC(N)=S)c(O)n3C(C)(C)C=C2C | 3.7 | -0.07
COc1cc2ncnc(N[C@H](C)c3ccccc3)c2cc1OC | 3.59 | -1.2
COc1ccc(C(=O)NCCc2nc3cc([N+](=O)[O-])ccc3n2C)cc1 | 0.58 | -1.48
Fc1ccc(CNC(=S)Nc2ccc(OC(F)F)cc2)cc1 | 2.39 | -0.76
CCc1ccccc1-n1nnnc1SCC(=O)Nc1ccc(N2CCN(C)CC2)cc1 | 0.33 | -0.55
CCOCCOC(=O)C(C)Oc1ccc(Oc2ncc(Cl)cc2Cl)cc1 (configuration not stated) | 0.48 | -0.27
O=C(N/N=C/c1cccnc1)c1cccc(F)c1 | 0.64 | 0.54
COc1ccc(C(=O)CN2C(=O)COc3ccccc32)cc1 | 0.77 | -0.51
CCc1cccc(NC(=S)N(CCOC)C(C)c2ccco2)c1 (configuration not stated) | 1.71 | 0.34
Cc1c2cnn(CC(=O)NC3CCCC3)c(=O)c2c(C)n1Cc1ccccc1 | 1.04 | 2.27
CCOC(=O)N1CCN(S(=O)(=O)c2ccc(C(=O)N(CCN(C)C)c3nc4ccc(Cl)cc4s3)cc2)CC1 | 0.17 | 0.14
Cc1ccc(C)c(NC(=O)C(=O)NCCc2c[nH]c3ccccc23)c1 | 0.75 | -1.08

Record cards, as listed above.
Record of CCOCCOC(=O)C(C)Oc1ccc(Oc2ncc(Cl)cc2Cl)cc1 (configuration not stated) → KCNQ2 pot: 0.48; KCNQ2 pot baseline: -0.27
Record of Cc1ccc(C)c(NC(=O)C(=O)NCCc2c[nH]c3ccccc23)c1 → KCNQ2 pot: 0.75; KCNQ2 pot baseline: -1.08
Record of CCc1ccccc1-n1nnnc1SCC(=O)Nc1ccc(N2CCN(C)CC2)cc1 → KCNQ2 pot: 0.33; KCNQ2 pot baseline: -0.55

Next part:
SMILES | KCNQ2 pot | KCNQ2 pot baseline
O=Cc1c(N2CCOCC2)nc2ccccn2c1=O | 2.44 | -0.19
OCCC1CN(Cc2cccc(C(F)(F)F)c2)CCN1Cc1ccccc1 (configuration not stated) | 0.14 | -0.01
CCOc1ccccc1N1CCN(C(=O)NCc2ccc(F)cc2)CC1 | 0.75 | -0.88
CC(C)(C)n1nnnc1C(c1cc2cc3c(cc2[nH]c1=O)OCO3)N1CCN(c2ccccc2)CC1 (configuration not stated) | 0.54 | -0.91
C/C(=C\CNc1ncnc2nc[nH]c12)CO | 0.48 | -0.25
CSCC[C@H](NC(=O)C1CCN(S(=O)(=O)c2ccccc2)CC1)C(=O)NC1CC1 | 0.38 | -1.06

A portion of the library; count on the stated rates, not on these rows.
